Screens (PubChem BioAssay)
TRPML1 blocker – inhibitors of human TRPML1 channel; 0.02% of 390,000 active; TRPML1-inducible cells, Ca2+ dye fluorescence, FDSS; hits give low values; inhibition of EC80 agonist-evoked calcium signal; AID 624415; activity change, negative = inhibition, % (test concentration not listed); in the data active means activity change below about -50%; inconclusive means about -30% to -50%; inactive means above about -30%;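 note: stimulus is agonist 54-4 at its EC80 concentration; % is set by controls: 0 for no effect and ±100 for the full control effect; compound concentration not given in the record; the text of the record puts the active cut at -80%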
Target sequence (Q9GZU1 whole entry, looked up): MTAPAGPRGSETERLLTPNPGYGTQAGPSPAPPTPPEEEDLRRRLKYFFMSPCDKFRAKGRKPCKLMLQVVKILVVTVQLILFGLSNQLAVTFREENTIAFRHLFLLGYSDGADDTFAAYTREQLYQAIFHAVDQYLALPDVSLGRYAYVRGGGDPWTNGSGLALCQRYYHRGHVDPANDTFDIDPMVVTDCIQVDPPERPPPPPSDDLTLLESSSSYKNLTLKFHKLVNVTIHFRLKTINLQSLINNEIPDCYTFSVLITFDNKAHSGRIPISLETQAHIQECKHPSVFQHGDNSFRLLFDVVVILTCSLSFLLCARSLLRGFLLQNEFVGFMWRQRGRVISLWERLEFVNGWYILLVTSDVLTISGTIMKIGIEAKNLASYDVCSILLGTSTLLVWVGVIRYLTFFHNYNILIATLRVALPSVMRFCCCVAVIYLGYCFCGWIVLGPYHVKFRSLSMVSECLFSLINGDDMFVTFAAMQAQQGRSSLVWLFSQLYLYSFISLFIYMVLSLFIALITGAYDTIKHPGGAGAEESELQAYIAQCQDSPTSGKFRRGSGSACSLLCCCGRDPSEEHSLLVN
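TRPML1-DL cells, Tet-induced overnight (~16 h, 37 °C) at 1,500 cells/well, were loaded with Ca8 no-wash dye plus quencher for 45-90 min at room temperature. Compounds were pinned during FDSS kinetic reading; agonist 54-4 at EC80 (4 uM final) then added.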
D2 PAM – positive allosteric modulators of human D2 dopamine receptor; P14416; DiscoveRx D2 beta-arrestin cells, luminescence, 90 min; 100% = 57 uM dopamine signal; potentiation, % (no concentration beside the values); 0.23% of 360,000 active; AID 624464; active = potentiation of 50% or more; inconclusive = 30% to 50%; inactive = 30% or less;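 note: compound concentration not given in the record; tested on top of an EC20 dose of dopamine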
Target sequence (P14416 whole entry, looked up): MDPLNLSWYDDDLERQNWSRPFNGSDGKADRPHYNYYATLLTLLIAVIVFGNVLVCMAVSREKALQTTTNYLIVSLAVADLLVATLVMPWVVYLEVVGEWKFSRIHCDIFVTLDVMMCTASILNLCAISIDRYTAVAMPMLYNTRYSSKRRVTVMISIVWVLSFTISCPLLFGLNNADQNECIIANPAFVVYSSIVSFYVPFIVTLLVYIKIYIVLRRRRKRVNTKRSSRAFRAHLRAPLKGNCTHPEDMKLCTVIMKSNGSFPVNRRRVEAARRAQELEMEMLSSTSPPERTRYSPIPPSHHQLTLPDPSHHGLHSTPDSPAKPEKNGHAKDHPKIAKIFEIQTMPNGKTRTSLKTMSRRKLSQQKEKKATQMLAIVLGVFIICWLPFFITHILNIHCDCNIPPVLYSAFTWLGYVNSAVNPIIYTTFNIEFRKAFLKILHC
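PathHunter beta-arrestin assay in DiscoveRx D2 cells. Compounds were added with an EC20 of dopamine (50 nM final) for 90 min at 37 deg C. Luminescence was read 1 h after detection reagent, with 57 uM dopamine as the EC100 control.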
Six1-Eya2 inh – Six1/Eya2 interaction inhibition; Q15475+O00167; AlphaScreen GST-Six1/His-Eya2 binding, biochemical; hits give low values; control for the full effect not named in the record; activity change, % (test concentration not listed); 0.56% of 360,000 active; AID 651725; in the data active = activity change below about -65%; inconclusive = about -30% to -65%; inactive = above about -30%; note: % is set by controls: 0 for no effect and ±100 for the full control effect; compound concentration not given in the record
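Homogeneous AlphaScreen proximity assay pairing GST-Six1 with His-tagged Eya2 (added as 5X mix: 250 nM and 500 nM) in 50 mM Tris pH 8.0, 300 mM NaCl, 1 mM TCEP. Glutathione donor and nickel acceptor beads; 1 h, 37 °C, dark.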
D2 agonist – activates the human D2 dopamine receptor | P14416 | DiscoveRx PathHunter D2 beta-arrestin, luminescence, 90 min; 100% = 57 uM dopamine signal | activation, % (no concentration beside the values) | 0.084% of 360,000 active | AID 624465; in the data active = activation above about 40%; inconclusive = about 15% to 40%; inactive = below about 15%; note: compound concentration not given in the record; the text of the record calls up to 30% inactive
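DiscoveRx PathHunter D2 beta-arrestin cells (2,100/well) attached overnight, then compound-stimulated 90 min at 37 C in HBSS/10 mM HEPES/0.1% Tween-20 buffer; beta-galactosidase complementation read by luminescence after 1 h at ambient temperature. Dopamine 57 uM final (EC100) as control.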
TRPML1 ag – activates the human TRPML1 channel; Q9GZU1; TRPML1-expressing cells, Ca2+ dye fluorescence, FDSS; host cell line not named in the record; reference of the full effect not given here; activation, % (concentration not given with the values); 0.12% of 410,000 active; AID 624414; in the data active = activation above about 50%; inconclusive = about 30% to 50%; inactive = below about 30%; note: 0% is about no effect; the text of the record puts the active cut at 80%
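Cells: TRPML1-DL, 1X Tet inducer, ~16 h at 37 degrees C/5% CO2. Dye: ABD Ca8 no-wash + quencher, 45-90 min RT. Read: 10 s baseline, compound add, 110 s agonist phase; 54-4 EC80 (4uM final), 110 s antagonist phase.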
PINK1 modulator – PINK1 expression modulation. Potency, µM (titrated, usually from 76.6 µM), for inactives: top-dose activation (PINK1 increase), usual class: activators. PINK1 immunofluorescence, high-content cytometry, 24 h. 0.2% of 410,000 active; active = well fitted activation curve with a large enough effect; inconclusive = small, poorly fitted or top-dose-only effect; inactive = flat fitted curve, though single readings scatter; cell line not stated here;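 note: potency is the fitted concentration of half-maximal effect; % of control where 0% means no effect; nearly all actives have a fitted effect of over 65% in size; a mitochondrial uncoupler was the plate control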
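Fluorescence from anti-PINK1 antibody, together with nuclear and cell stains, was scanned on a laser-scanning cytometer. Before staining, stable-line cells were incubated 24 hours with compounds at 5 concentrations; primary antibody 12 h at 10 degrees C.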
* = called active by the depositor; ? = inconclusive; nt = not tested or not shown; [ ] = dose if it differs, or a comment.

Values run as follows: TRPML1 blocker | D2 PAM | Six1-Eya2 inh | D2 agonist | TRPML1 ag | PINK1 modulator
1) COC(=O)c1nc2nc(C)cc(C(F)(F)F)n2n1
    -9 | 7 | 5 | 0.8 | 0.3 | -1.2%
2) Cc1cccc(NS(=O)(=O)c2cccc(C(=O)NCC(C)(C)N3CCOCC3)c2)c1
    2 | 25 | 5 | 2.2 | 0.5 | -0.2%
3) Cc1ccc(-c2csc(N(CCO)CCCn3c(C(F)(F)F)nc4ccccc43)n2)cc1
    -20 | -5 | 6 | -2.1 | 0.6 | ?
4) COc1ccc(-c2cc(C(=O)NCCCN3CCOCC3)c3cc(C(C)C)ccc3n2)cc1
    42 | -16 | -3 | 2.8 | 0.5 | -0.4%
5) COc1ccc(CC(=O)NCC(=O)N/N=C/c2ccco2)cc1
    10 | 0 | 0 | 3.2 | 0.8 | 0.9%
6) Cc1ccc(C)c(CNC(=O)c2cc3ccccn3n2)c1
    9 | nt | nt | nt | -1.3 | 2.8%
7) CCCCOCCCNC(=O)c1c(-c2ccccc2)noc1C
    25 | 14 | 5 | -1.7 | 0.3 | -0.3%
8) O=C1OC2(O)C3C4C=CC(C4)C3C(=O)N2c2ccccc21 (stereo unspecified)
    -5 | -14 | 2 | -4.1 | -0.1 | 0.3%
9) COCOc1ccc(-c2ncc(OC)nc2NC(=O)c2cc(C)oc2C)cc1
    1 | -17 | -5 | -4.6 | -0.1 | 0.3%
10) CC(=O)N1c2ccc(S(=O)(=O)NCC3CCC(C(=O)Nc4cc(C)ccc4C)CC3)cc2CC1C (stereo unspecified)
    -2 | nt | nt | nt | 0.4 | 1.4%
11) Cc1ccc(S(=O)(=O)NCCc2c[nH]c3ccccc23)cc1
    -4 | -15 | -1 | 2.7 | -0.6 | 2.1%
12) COc1cccc(CNC(=O)CCCCCn2c(=O)[nH]c3cc(OC)c(OC)cc3c2=O)c1
    8 | nt | nt | nt | -0.6 | 0.2%
13) Cc1nc2cc(C(=O)O)ccc2n1-c1ccc(F)cc1F
    -24 | -24 | -6 | -4.3 | 1.6 | -0.8%
14) CCC(=O)N1CCc2cc(Br)cc(S(=O)(=O)CC(=O)OC)c21
    9 | -40 | -14 | -1.3 | 3.0 | 1.7%
15) COc1ccc(Cc2nnc(N/N=C/c3ccc(O)cc3)[nH]c2=O)cc1OC
    3 | 5 | -82* | -5.3 | 1.0 | -0.1%
16) CN(C(=O)c1ccc(NC(=O)Cc2ccc(NC(=O)C3CCCN(C(=O)c4ccccc4)C3)cc2)cc1)C1CCCC1 (stereo unspecified)
    0 | -3 | 1 | -1.7 | 1.2 | 4.2%
17) CCCn1c(NCc2cccc(OC)c2OC)nc2ccccc21
    -15 | -32 | -3 | -1.2 | -0.4 | 3.1%
18) Cc1cc(Nc2ccc3c(c2)OCCO3)n2ncnc2n1
    -7 | -6 | -3 | 1.2 | -0.5 | 1.6%
19) CNC(=O)CCCN1C(=O)c2ccccc2Sc2ncccc21
    nt | 4 | 7 | 2.9 | nt | -0.6%
20) CCC(Sc1nc2ccsc2c(=O)n1-c1ccc(Cl)c(C)c1)C(=O)NCc1ccco1 (stereo unspecified)
    3 | -17 | -14 | -3.1 | 0.6 | -2.3%
21) O=C(c1ccccc1)N1CCN(C(=S)NCc2ccc3c(c2)OCO3)CC1
    -2 | -1 | -3 | -3.2 | 0.3 | -0.1%
22) O=C(CCC(=O)OCC(F)(F)C(F)F)Nc1ccccc1F
    3 | 7 | 4 | -2.7 | -0.2 | 0.2%
23) O=S(=O)(NCc1ccccc1)c1ccc(S(=O)(=O)N2CCCCC2)cc1
    2 | 0 | -1 | -1.5 | 0.5 | 5.1%[38.3 µM]
24) CCN(C(=O)COC(=O)C1CCN(S(=O)(=O)c2ccc(C)c(C)c2)CC1)C1CCS(=O)(=O)C1 (stereo unspecified)
    4 | -17 | 2 | -3.2 | 1.0 | 2.0%
25) CCOC(=O)CCCCC(=O)c1[nH]c(=O)[nH]c1CSc1nnc2c3ccccc3n(C(C)C)c2n1
    14 | -2 | -16 | 2.3 | 4.5 | 3.3%
26) CC1N(C(=O)N2CCOCC2)CCN1S(=O)(=O)c1cccc(C(F)(F)F)c1 (stereo unspecified)
    -1 | -1 | 20 | -2.2 | 1.0 | -0.4%
27) CN(Cc1nc2ccccc2n1C)c1ccccc1
    -13 | -18 | 17 | -0.8 | 0.6 | 0.3%
28) CCN(Cc1ccccc1)C(=O)CC(=O)N(CC)Cc1ccccc1
    3 | -8 | 3 | -4.6 | -0.6 | -0.5%
29) O=C(COC(=O)C1CC2CCCC(C1)C2=O)Nc1nc(-c2ccc(F)c(F)c2)cs1 (stereo unspecified)
    5 | 8 | -1 | 6.3 | 1.1 | -1.9%
30) Cc1cc2cc(CCNC(=O)C(C)C)c(=O)[nH]c2cc1C
    1 | -2 | 3 | 1.7 | 0.0 | -2.9%[38.3 µM]
31) Cc1ccc(/C=N/n2cnnc2)s1
    -20 | -7 | 4 | 2.9 | -0.4 | nt
32) Cc1ccc(S(=O)(=O)N2CC(=O)Nc3ccccc32)cc1C
    -13 | -5 | 4 | -1.9 | 0.8 | 1.0%[38.3 µM]
33) COc1ccc(C(=O)Nc2ccc(CN3CCS(=O)(=O)CC3)cc2)cc1
    11 | -13 | 7 | -4.9 | -0.5 | 1.6%
34) CCCCNC(=O)CCn1c(=O)c2ccccc2n(Cc2ccccc2C)c1=O
    -4 | -2 | 1 | -0.7 | 0.2 | 2.6%
35) Cc1c(CC=C(Cl)Cl)c(=O)[nH]c2c(C)cccc12
    13 | -9 | 9 | -2.4 | 2.3 | 6.1%
36) CCn1nnc(NC(=O)c2ccccc2Br)n1
    -1 | -8 | 5 | -3.3 | -0.1 | -1.4%[38.3 µM]
37) O=C(CSc1nnc(Cc2ccccc2)n1Cc1ccco1)NC1CCCC1
    3 | -2 | 2 | -3.6 | 1.0 | -1.7%[38.3 µM]
38) Cc1ccc(C(=O)N2CCN(c3ccccc3F)CC2)cc1NC1=NC2CS(=O)(=O)CC2S1 (stereo unspecified)
    -7 | -9 | 2 | 7.5 | 0.5 | -0.5%
39) COc1ccc(CCNC(=O)c2ccc(N3CCCCS3(=O)=O)cc2)cc1OC
    2 | -7 | -2 | -0.4 | -0.5 | -1.3%
40) O=C1C(Cc2ccc(O)cc2)NC(=S)N1Cc1ccccc1 (stereo unspecified)
    nt | -8 | 0 | -9.1 | nt | 0.5%

An excerpt from above, showing only D2 PAM and TRPML1 ag.
entry	canonical_smiles	D2 PAM	TRPML1 ag
23	O=S(=O)(NCc1ccccc1)c1ccc(S(=O)(=O)N2CCCCC2)cc1	0	0.5
24	CCN(C(=O)COC(=O)C1CCN(S(=O)(=O)c2ccc(C)c(C)c2)CC1)C1CCS(=O)(=O)C1 (stereo unspecified)	-17	1.0

Continued.
Values run as follows: TRPML1 blocker | D2 PAM | Six1-Eya2 inh | D2 agonist | TRPML1 ag | PINK1 modulator
41) Cc1ccc(CNC(=O)C2CC(=O)N(C3CCCC3)C2)cc1 (stereo unspecified)
    -3 | -10 | 7 | 0.0 | -0.3 | 0.1%
42) COc1ccc(N2CCN(CCCNC(=O)c3sc4ncccc4c3-n3cccc3)CC2)cc1
    3 | nt | nt | nt | -0.6 | 0.6%
43) CCCCOC(=O)c1ccc(NS(=O)(=O)c2cc(-c3nnnn3CC)ccc2OC)cc1
    -3 | -5 | -4 | 0.6 | -0.9 | -1.3%
44) CC(=O)c1ccc(S(=O)(=O)N2CCN(c3ccccc3F)CC2)cc1
    -5 | 7 | 1 | 4.7 | -0.5 | -0.4%
45) O=C(CCS(=O)(=O)c1ccccc1)N(CCCN1CCOCC1)c1nc2c(F)cccc2s1
    -10 | -23 | 0 | -4.0 | 0.0 | -2.3%
46) CC(=O)N1N=C(c2ccccc2OC(=O)/C=C/c2ccccc2)CC1c1ccccc1 (stereo unspecified)
    3 | -2 | ? | -4.5 | 0.9 | 4.4%
47) CCOc1ccc(C(=O)OCCCN(C)C)cc1
    -9 | -11 | 5 | -0.3 | 0.6 | 1.6%
48) O=C(/C=C/c1ccc2c(c1)OCO2)N1CCCCC1
    -5 | -25 | 1 | 1.0 | 0.2 | 1.3%
49) [O-]C1=N/[N+](=C/c2ccccc2Cl)CC1
    -1 | -22 | 2 | -2.5 | -0.7 | 1.3%
50) CN(CC(=O)Nc1cccc(F)c1)CC(=O)Nc1cccc(S(=O)(=O)N2CCCCC2)c1
    -3 | -15 | -2 | -1.9 | 2.6 | 3.3%
51) Cc1c(C(=O)N(Cc2cccc(Br)c2)C2CCS(=O)(=O)C2)oc2ccc(F)cc12 (stereo unspecified)
    26 | 6 | -6 | -2.1 | 0.0 | 2.6%
52) Cc1ccc(NC(=O)C(NC2CCCc3ccccc32)c2ccccc2)c([N+](=O)[O-])c1 (stereo unspecified)
    12 | -16 | -26 | -2.9 | 1.2 | -0.1%
53) COc1cc(C(C)=O)ccc1OCC(=O)Nc1cc(Cl)ccc1-n1cncn1
    3 | -19 | 0 | -4.7 | 0.0 | 1.8%
54) COc1ccccc1C(O)(C(=O)NNc1ccccc1C)c1ccccc1OC
    -1 | -5 | 0 | 0.3 | 4.3 | -0.5%
55) Cc1ccccc1CNC(=O)CC1C(=O)NCCN1Cc1c(F)cccc1Cl (stereo unspecified)
    -3 | -7 | 0 | 2.9 | 0.7 | -2.2%
56) COC(=O)c1c(NC(=O)C(C)Oc2ccc(Cl)c(C)c2)sc(C)c1C (stereo unspecified)
    -7 | nt | nt | nt | -0.1 | 2.5%
57) CCOc1ccc(S(=O)(=O)N2CCCCC2)cc1NC(=O)c1cccnc1OCC
    2 | -4 | -5 | -0.9 | -1.6 | 9.1%
58) Cc1ccc(CN2CC(=O)N3[C@H]4c5ccccc5OC[C@@H]4[C@H](c4ccccc4)[C@]3(C)C2=O)cc1
    -5 | -3 | -13 | -0.6 | 0.2 | 3.3%
59) CS(=O)(=O)N(Cc1ccccc1Cl)c1ccc(C(=O)N2CCCC2)cc1
    0 | -4 | 2 | 4.1 | 0.5 | 0.1%
60) O=C(CCCn1c(=O)[nH]c2ccsc2c1=O)N1CCN(c2ccccn2)CC1
    8 | 7 | -2 | -2.4 | 0.1 | -0.2%

An excerpt from above in order of their number in D2 agonist, largest number first.
| entry | smiles | TRPML1 blocker | D2 PAM | Six1-Eya2 inh | D2 agonist | PINK1 modulator |
| --- | --- | --- | --- | --- | --- | --- |
| 57 | CCOc1ccc(S(=O)(=O)N2CCCCC2)cc1NC(=O)c1cccnc1OCC | 2 | -4 | -5 | -0.9 | 9.1% |
| 7 | CCCCOCCCNC(=O)c1c(-c2ccccc2)noc1C | 25 | 14 | 5 | -1.7 | -0.3% |
| 60 | O=C(CCCn1c(=O)[nH]c2ccsc2c1=O)N1CCN(c2ccccn2)CC1 | 8 | 7 | -2 | -2.4 | -0.2% |
| 36 | CCn1nnc(NC(=O)c2ccccc2Br)n1 | -1 | -8 | 5 | -3.3 | -1.4%[38.3 µM] |
